Sa ugtP lethal: kills S. aureus RN4220 lacking UgtP | 330,000 tested, 0.54% active | S. aureus RN4220 ugtP deletion, OD600 growth, 16 h; some inactives read as strong as hits | AID 1259309 | growth inhibition, % (test concentration not listed);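 active = z-score under -3 and OD600 up to 0.15 on both plates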;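 note: plate controls were untreated wells for no effect and antibiotic for full effect; wells of about 80 µL received 100 nL stock; the first replicate is given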
Sa RN4220 lethal: S. aureus RN4220 growth inhibition. 330,000 tested, 0.33% active. inhibition, % (no concentration beside the values). OD600, 16 h. AID 1259311;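 active = z-score of -3 or lower and OD600 up to 0.18 on both plates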;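 note: plate controls were untreated cells for no effect and reference antibiotic for full effect; stock transfer was 100 nL into about 80 µL; one replicate is shown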
Mtb hypoxia rep: Mtb hypoxia fluorescent reporter inhibition; M. tuberculosis hypoxia-regulated fluorescent reporter, fluorescence; fluorescence inhibition, % (no concentration beside the values); AID 1159583; 300,000 tested, 0.1% active;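 active = 35 to 45% if threefold the growth effect, above 45% if 1.5-fold the growth effect; inactive = the rest, general growth blockers included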;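 note: wells of about 50 µL received 100 nL stock; 0% = vehicle wells and 100% = reference inhibitor wells; whole bacteria with a GFP reporter of the hypoxia response; strong numbers were not always called active; many hits fall short of the cut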
BJeLR viability: kills HRASV12-expressing BJeLR cells | BJeLR (HRASV12) viability, CellTiter-Glo ATP luminescence, 48 h; reference of the scale not given here | inhibition, % (test concentration not listed) | 300,000 tested, 0.17% active;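 active = replicate mean above 50%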;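 note: 50 nL library stock added to about 25 µL; numbers are from one replicate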
Autofluor counter: flagged as autofluorescent in microsphere protease counterscreen. fluorescence intensity (concentration not given with the values). compound autofluorescence counterscreen, microsphere flow cytometry; stronger effect = higher value. 360,000 tested, 3.1% active;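 active = at least 3 SD above the mean of all compounds, about 16000 in these data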;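 note: 100 nL of 1 mM stock went into each well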
PrP UTR inh: inhibition of PrP 5' UTR reporter expression; cell-based PrP 5' UTR mRNA reporter, plate reader; inhibition, % (test concentration not listed); 340,000 tested, 0.35% active; AID 488862;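 active = every replicate at 50% or more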;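 note: 0 = median of the neutral control wells; tested in H4 reporter cells; numbers are from one replicate; inactives centre near -14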
Mtb hypoxia rep growth: also measured in Mtb hypoxia rep; calls as there; growth inhibition, %; measured here: M. tuberculosis growth (absorbance);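 0% = vehicle and 100% = reference antibiotic; read after six days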
* marks the source's active call; other numbers are inactive results; · = no result given.

SMILES | Sa ugtP lethal | Sa RN4220 lethal | Mtb hypoxia rep | Mtb hypoxia rep growth | BJeLR viability | Autofluor counter | PrP UTR inh
COc1ccc(/C=C/C(=O)Nc2nc(N)n(-c3ccccc3)n2)cc1 | -8 | 7.5 | 10 | 5 | -4 | 2416 | -9
CC(=O)Oc1c(Cl)cc(Cl)cc1/C=C/c1ccc2ccccc2n1 | -4 | 7.2 | 0 | 12 | 9 | 7988 | ·
Nn1c(SCC(=O)Nc2ccc3c(c2)OCCO3)nnc1C(F)(F)F | -6 | -15 | 12 | 8 | 10 | 2888 | -24
O=C(CN1CCCCC1)Nc1ccc(S(=O)(=O)N2CCCCCC2)cc1 | 4 | 5.1 | 15 | 5 | 6 | 8142 | -34
COc1ccc(NC2=CC(c3ccc(OC)c(OC)c3)N(c3ccc(OC)cc3)C2=O)cc1 (configuration not stated) | 3 | 3.8 | 10 | 1 | -7 | 2045 | -5
CCOCCCNC(=S)N(CCO)Cc1cc2cc3c(cc2[nH]c1=O)OCCO3 | 8 | 0.9 | 1 | -1 | 1 | 4038 | -20
S=C(Nc1cc(Cl)ccc1Oc1ccccc1)N1CCN(c2ccccn2)CC1 | 0 | -1.7 | -1 | -4 | -1 | 3186 | -13
COC(=O)CCc1c[nH]c2ccc([N+](=O)[O-])cc12 | -4 | 3.7 | 12 | 8 | · | 2945 | -32
CCOC(=O)CNS(=O)(=O)c1c(C)noc1C | -4 | 3.1 | · | · | 2 | 2188 | -5
Cc1c(NC(=O)c2ccc(Cl)c(S(=O)(=O)N3CCOCC3)c2)c(=O)n(-c2ccccc2)n1C | -1 | 3.1 | 7 | 15 | 11 | 11211 | -22
COc1cccc(NC(=O)C2Cc3ccccc3CN2C(=O)c2ccco2)c1 (configuration not stated) | 6 | 4.9 | -1 | -4 | -9 | 3744 | -28
Nc1ccc(-c2nc3c(ccc4ccccc43)[nH]2)cc1 | -16 | 2.7 | 10 | -2 | -7 | 3266 | -16
CCOc1ccccc1N1CCN(Cc2cc3c(cc2[N+](=O)[O-])OCO3)CC1 | 14 | 1.3 | -4 | 1 | 4 | 2912 | -23
CC(C)(C)NC(=O)COc1ccc(CNc2ncn[nH]2)cc1 | 6 | 4.6 | 0 | 6 | 12 | 4222 | -42
CCc1ccc(NC(=S)Nc2ccc(S(=O)(=O)Nc3ncccn3)cc2)cc1 | -2 | 0.9 | 12 | 4 | -1 | 3590 | -16
CC(C)(C)C1CCC(C(=O)OCC(=O)N2CCN(C(=O)c3ccco3)CC2)CC1 (configuration not stated) | -2 | 2.6 | 5 | 16 | 6 | 2963 | -21
COc1ccccc1-n1c(-c2cc(-c3ccc(F)cc3)n[nH]2)n[nH]c1=S | 16 | -8.7 | 4 | 12 | 0 | 4182 | -46
CCC(C)(C)NC(=O)Cn1c(-c2ccccc2)cc(C(C)=O)c1C | -6 | -0.8 | -16 | -6 | -11 | 2600 | -28
Oc1ccc(-c2nccc(-c3ccccn3)n2)cc1 | 1 | 9.0 | 2 | 2 | -9 | 3974 | -25
Cc1ccccc1-n1c(SCC(=O)N(C)C2CCS(=O)(=O)C2)nc2ccccc2c1=O (configuration not stated) | 6 | 9.8 | 13 | 4 | -19 | 4222 | -13
CC(C)N(C(=O)CSc1nnc(Cn2nnc3ccccc32)n1C)C(C)C | -1 | -6.7 | 9 | 14 | -12 | 2792 | -15
CN(CC(=O)N1CCN(c2ccccn2)CC1)S(=O)(=O)c1cccc2nsnc12 | 2 | 4.7 | -1 | 12 | 7 | 2508 | -5
Cc1ccc(N(CC(=O)NCC2CCCO2)C(=O)CCC(=O)Nc2ccccn2)cc1 (configuration not stated) | 2 | 8.0 | 9 | 10 | 11 | 4582 | -12
Cc1cc(C)c(S(=O)(=O)NCCCn2ccnc2)c(C)c1 | 9 | 6.3 | 13 | 7 | 3 | 2119 | 2
CCCCC(=O)Nc1ccccc1C#N | -2 | 3.1 | 9 | 5 | -1 | 2390 | 5

Other records follow:
SMILES | Sa ugtP lethal | Sa RN4220 lethal | Mtb hypoxia rep | Mtb hypoxia rep growth | BJeLR viability | Autofluor counter | PrP UTR inh
COc1ccc(C(=O)N(c2ccccn2)C2CCCCC2)c(OC)c1 | 3 | -2.5 | 8 | 1 | -1 | 4105 | -10
COc1ccccc1N1CCN(C(=O)c2cc(C)on2)CC1 | 0 | 3.4 | -7 | 5 | -5 | 6092 | -18
CCOC(=O)CSc1nc2sc3c(c2c(=O)[nH]1)CC(C)(C)OC3 | -3 | 3.4 | 12 | 11 | -6 | 8238 | -29
Cc1ccc(S(=O)(=O)N2CCOCC2)c(C)c1NS(C)(=O)=O | 6 | 4.4 | 0 | 0 | -12 | 2380 | -9
C#CCOCCOCCOCCNc1nc(N2CCN(C(=O)[C@H](CCCCN)n3cc([C@@H](N)[C@H](C)CC)nn3)CC2)nc(N2CCN(C(=O)[C@H](CCC(=O)O)n3cc([C@@H](N)CCSC)nn3)CC2)n1 | 0 | -1.1 | 3 | 4 | · | 3912 | -18
O=C(OCc1ccccc1F)c1cc2ccccc2cc1O | 87* | 3.2 | -3 | 3 | 3 | 3511 | -20
O=C(N/N=C/C=C\c1ccco1)c1cccs1 | · | · | · | · | -12 | 4641 | -42
CN(c1ccccc1C(=O)N1CCN(c2ccccc2)CC1)S(C)(=O)=O | 1 | 6.2 | 14 | 15 | 1 | 3086 | 1
O=C(NCc1n[nH]c(=S)n1-c1cccc(C(F)(F)F)c1)c1ccco1 | 2 | 4.4 | 20 | 8 | -1 | 3238 | -9
CCCNC(=O)Nc1cc(OC)c(OC)cc1Cc1nccc2cc(OC)c(OC)cc12 | 3 | -3.8 | 4 | -5 | -9 | 2835 | -6
O=C(O)CC1(CC(=O)O)Nc2ccccc2SC1=O | 3 | 2.7 | 10 | 4 | · | 3806 | 1
O=C1/C(=C/c2ccccn2)SC(=S)N1N1CCOCC1 | 14 | 3.4 | 3 | 8 | -9 | 6072 | -12
COc1cccc(C(=O)Nc2nnc(-c3ccc(Cl)cc3)o2)c1 | 100* | 99* | 3 | 4 | 7 | 5161 | -22
Cc1cc(=O)n2[nH]c(=O)c(N=Nc3ccccc3)c2[nH]1 | 0 | -16 | 6 | -4 | 12 | 3215 | -27
CC(=NNC(=O)c1ccccc1)c1ccc(N2CCCCC2)cc1 | 0 | 6.6 | 3 | 3 | · | · | ·
CCOC(=O)Cn1c(=O)oc2cc(S(=O)(=O)N(CCN(C)C)Cc3ccccc3)ccc21 | -1 | -0.3 | 5 | 8 | 12 | 23509* | -16
Fc1ccc(-c2csc(NC(=S)Nc3ccccc3)n2)cc1 | 6 | -16 | -2 | -4 | -12 | 3896 | -16
c1ccc(COc2ccc(OCCN3CCCC3)cc2)cc1 | -1 | 2.0 | 11 | 6 | -3 | 2286 | -38
CC(C)NC(=O)NC(=O)COC(=O)/C=C/c1ccc2c(c1)OCO2 | 11 | 1.6 | 1 | -5 | -18 | 4644 | 0
Cc1cc([N+](=O)[O-])ccc1NC(=O)CSc1nnc(C)n1C | 11 | 3.3 | -1 | 9 | 2 | 2630 | 14
COc1cc(/C=N/NC(=O)c2cc(-c3ccccc3)nc3ccccc23)cc(OC)c1O | · | · | · | · | 0 | 3863 | -5
COC(CNC(=O)C(=O)NCC1OCCN1S(=O)(=O)c1ccccc1)OC (configuration not stated) | 1 | -1.2 | 1 | -4 | -2 | 5853 | -12
Cc1ccc(S(=O)(=O)NCC2CCC(C(=O)N3CCOCC3)CC2)cc1 (configuration not stated) | -3 | 0.5 | 10 | 1 | 5 | 3624 | -22
COc1ccccc1-n1cnnc1SCC(=O)NCc1cccs1 | 5 | 12 | -1 | -3 | 16 | 2898 | -14
COc1ccc(S(=O)(=O)N(C(=O)c2ccco2)c2cc3sc(=O)oc3c3ccccc23)cc1 | 2 | 3.9 | 5 | 2 | 10 | 2052 | -10

Next section:
SMILES | Sa ugtP lethal | Sa RN4220 lethal | Mtb hypoxia rep | Mtb hypoxia rep growth | BJeLR viability | Autofluor counter | PrP UTR inh
COc1ccc(-c2nn(-c3ccccc3)cc2C(=O)N(C)CC(=O)Nc2ccc(N3CCOCC3)cc2)cc1 | 3 | 1.5 | 3 | -1 | 6 | 5227 | -28
Cc1cc(C(=O)OCC(=O)Nc2cc(S(=O)(=O)N(C)C)ccc2C)c2ccccc2n1 | 1 | 3.8 | -9 | 3 | 4 | 4816 | -14
CSc1ccccc1NC(=O)C1CC(c2ccccc2O)=NO1 (configuration not stated) | -9 | 8.0 | 10 | 8 | 2 | 8705 | -33
O=C(NCCN1CCCCC1)c1ccco1 | 7 | 0.7 | · | · | -1 | 2558 | -18
CCCc1sc(N2CCCC(C(N)=O)C2)nc1-c1ccccc1 (configuration not stated) | -7 | -2.4 | 1 | -8 | 4 | 2419 | -11
Cc1ccc(C(=O)ON=C(N)c2nonc2N)cc1 | 12 | 6.3 | 8 | 0 | · | · | ·
COc1ccc(NC(=O)CN2CCN(S(=O)(=O)c3ccc(F)cc3)CC2)cc1Cl | 3 | 0.6 | · | · | -3 | 2861 | -11
O=C(Nc1nc2ccccc2[nH]1)c1ccc(F)cc1 | -7 | 0.2 | -3 | -5 | 26 | 7728 | 0
COc1ccc(CCNC(=O)C2CC(c3ccc(C(F)(F)F)cc3)=NO2)cc1 (configuration not stated) | -1 | 1.1 | 1 | -3 | -1 | 3970 | -7
Cc1cccc(NC(=O)c2cc(-c3ccccn3)nc3ccccc23)c1C | · | · | · | · | -1 | 4540 | -14
COc1cccc(/C(O)=C2/C(=O)C(=O)N(Cc3ccco3)C2c2ccncc2)c1 (configuration not stated) | 5 | 1.4 | · | · | 2 | 3204 | -17
COc1ccccc1CNC(=O)COC(=O)/C=C/c1ccc(OC(F)F)c(OC)c1 | 1 | 4.0 | 6 | 2 | 4 | 6283 | -27
CCCCn1c(N)c(N(CC(C)C)C(=O)C2CCC2)c(=O)[nH]c1=O | 2 | 3.9 | 7 | 8 | · | 5862 | ·
Cc1cccc(C(=O)N[C@H](C(=O)NCCc2ccc(Cl)cc2)C(C)C)c1 | 2 | -0.2 | 8 | 6 | 2 | 3021 | -20
CCCS(=O)(=O)N1CCn2c(nc3ccccc32)C1 | 4 | 8.1 | 3 | 9 | -18 | 5803 | -8
O=C(O)CN1C(=O)C2(OCCO2)c2cc(Br)ccc21 | 7 | 3.8 | -1 | 4 | -6 | 4096 | -11
CCN(CC)c1ccc(Nc2nc(N3CCOCC3)c3ccccc3n2)cc1 | -9 | -2.5 | -5 | 3 | 12 | 20077* | -14
CN(C)c1ccc(NC(=O)c2ccc3nc[nH]c3c2)cc1 | 4 | 0.5 | 2 | 9 | -5 | 2778 | -47
Cc1cc(C)cc(OCC(=O)NNC(=O)C2CCCO2)c1 (configuration not stated) | 8 | 8.1 | 15 | 12 | -11 | 5193 | -27

Complete entries, looked up by structure:
`Cc1cc([N+](=O)[O-])ccc1NC(=O)CSc1nnc(C)n1C` in the list: Sa ugtP lethal = 11; Sa RN4220 lethal = 3.3; Mtb hypoxia rep = -1; Mtb hypoxia rep growth = 9; BJeLR viability = 2; Autofluor counter = 2630; PrP UTR inh = 14
`CC(=O)Oc1c(Cl)cc(Cl)cc1/C=C/c1ccc2ccccc2n1` in the list: Sa ugtP lethal = -4; Sa RN4220 lethal = 7.2; Mtb hypoxia rep = 0; Mtb hypoxia rep growth = 12; BJeLR viability = 9; Autofluor counter = 7988; PrP UTR inh = ·

5 structures out of the list, ordered by molar mass, largest number first:
SMILES | Sa ugtP lethal | Sa RN4220 lethal | Mtb hypoxia rep | Mtb hypoxia rep growth | BJeLR viability | Autofluor counter | PrP UTR inh
COc1ccc(-c2nn(-c3ccccc3)cc2C(=O)N(C)CC(=O)Nc2ccc(N3CCOCC3)cc2)cc1 | 3 | 1.5 | 3 | -1 | 6 | 5227 | -28
COc1cccc(/C(O)=C2/C(=O)C(=O)N(Cc3ccco3)C2c2ccncc2)c1 (configuration not stated) | 5 | 1.4 | · | · | 2 | 3204 | -17
CCN(CC)c1ccc(Nc2nc(N3CCOCC3)c3ccccc3n2)cc1 | -9 | -2.5 | -5 | 3 | 12 | 20077* | -14
CCCc1sc(N2CCCC(C(N)=O)C2)nc1-c1ccccc1 (configuration not stated) | -7 | -2.4 | 1 | -8 | 4 | 2419 | -11
CSc1ccccc1NC(=O)C1CC(c2ccccc2O)=NO1 (configuration not stated) | -9 | 8.0 | 10 | 8 | 2 | 8705 | -33

Assay outcomes from PubChem.
